RanGTP-Imp inh: disruptors of Ran-importin-beta complex formation – biochemical, FRET, CFP-Ran, YFP-importin-beta, homogeneous, primary screen. cell-free CFP-Ran/YFP-importin-beta FRET ratio. inhibition, % (no concentration beside the values). hit rate 1.1% among 300,000. AID 2216;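 active = most replicates above 15%; inconclusive = exactly half above 15%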;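 note: 0% = DMSO wells and 100% = Ran loaded with GDP instead of GTP; wells of about 40 µL received 100 nL stock; the first replicate is given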
FGF22 binding: FGF22 (human) thermal shift binding. recombinant FGF22 thermal shift, SYPRO orange fluorescence; percent of sucrose octasulfate shift, DMSO zero. calls only at 9.99 µM. hit rate 1.5% among 340,000. AID 651658;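 active = melting point raised past a set limit in the mean and every replicate; inconclusive = no clear call; three in four hits are not shown here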
Target sequence (Q9HCT0 whole entry, looked up): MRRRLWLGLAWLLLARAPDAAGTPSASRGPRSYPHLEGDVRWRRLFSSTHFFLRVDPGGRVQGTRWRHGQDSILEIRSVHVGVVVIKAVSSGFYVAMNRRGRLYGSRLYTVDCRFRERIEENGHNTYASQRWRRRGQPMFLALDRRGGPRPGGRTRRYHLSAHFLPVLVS
Vif TR-FRET: HIV-1 Vif–A3G interaction blockers – biochemical, TR-FRET, GST-Vif 1-94, biotin-A3G peptide, dose response retest, primary screen (AID 1117319); hit rate 0.57% among 260,000; inhibition, %, or IC50 in µM where a hit was titrated; TR-FRET GST-Vif / biotin-A3G peptide binding; higher % means a stronger effect; test concentration not given here; strong numbers were not always called active;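 active = above the screen mean plus three standard deviations and confirmed in dose response; inconclusive = results disagree or hit not tested in dose response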;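 note: Vif residues 1-94 fused to GST binding biotinylated APOBEC3G peptide 110-148; 0% = full assay without inhibitor and 100% = GST in place of GST-Vif; retest series ran down from 100 µM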
E coli growth: E. coli growth inhibition. Escherichia coli growth, OD600, 23 h; stronger effect = lower value. OD600 absorbance (concentration not given with the values). hit rate 0.21% among 330,000;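 active = OD600 absorbance below the run mean of sample wells minus 3.6 SD, in any replicate, cut at about 0.56 in these data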;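 note: stock transfer was 300 nL into about 60 µL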
HNF4A DNA FP: change in binding of human HNF4 alpha to DNA; HNF4a-FITC DNA binding, fluorescence polarization, 1 h; activity change, % at 10 µM; hit rate 0.3% among 360,000; in the data active = activity change above about 30%, passing the limit was not always enough;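 note: controls were the assay level and a saturating level of protein; the project sought stronger binding though the title names inhibitors; some compounds called inactive have numbers as strong as hits; positive values seem to mean higher polarization but the record does not say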
UCH37 DUB inh: human UCH37 deubiquitinating enzyme inhibition | Q9Y5K5 | purified proteasome/UCH37, Ub-AMC cleavage fluorescence | inhibition, % (no concentration beside the values) | hit rate 0.33% among 330,000;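 active = mean of two replicates above 20%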;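 note: 0% = compound-free wells with enzyme and 100% = wells lacking proteasome; stock transfer was 100 nL into about 20 µL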
Target sequence (Q9Y5K5 whole entry, looked up): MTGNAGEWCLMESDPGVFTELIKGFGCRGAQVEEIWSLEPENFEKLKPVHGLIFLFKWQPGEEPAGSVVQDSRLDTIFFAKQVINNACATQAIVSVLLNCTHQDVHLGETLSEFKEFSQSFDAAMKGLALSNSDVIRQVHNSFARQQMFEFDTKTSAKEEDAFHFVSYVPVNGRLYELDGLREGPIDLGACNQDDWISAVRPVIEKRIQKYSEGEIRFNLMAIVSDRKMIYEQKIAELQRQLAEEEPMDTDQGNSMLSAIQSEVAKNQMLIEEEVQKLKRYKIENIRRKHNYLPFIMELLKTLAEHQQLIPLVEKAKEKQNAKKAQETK
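Material: human UCH37 enzyme supplied as purified proteasome complex / Amount: 0.15 nM proteasome as dispensed / Buffer or medium: pH 7.4 Tris-HCl (50 mM) with ovalbumin, ATP-MgCl2, DTT / Times: preincubation 30 min, reaction 25 min, room temperature / Technique: AMC fluorescence from Ub-AMC cleavage, excitation 355 nm, emission 460 nm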
AF4-AF9 inh: inhibitors of human MLL-AF4/AF9 interaction; P42568; AlphaScreen, biotin-AF4 peptide binding to FLAG-AF9; inhibition, % at 10 µM; hit rate 0.47% among 350,000; AID 651704;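 active = every replicate reaching a set inhibition limit, whatever the replicate mean, cut at about 25% in these data; inconclusive = mean inhibition reaches that limit but some replicates miss it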;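 note: 0% = plate neutral control median and 100% = total signal loss; the record names both 10 and 1 µM as test concentration; the first replicate is given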
Target sequence (P42568 whole entry, looked up): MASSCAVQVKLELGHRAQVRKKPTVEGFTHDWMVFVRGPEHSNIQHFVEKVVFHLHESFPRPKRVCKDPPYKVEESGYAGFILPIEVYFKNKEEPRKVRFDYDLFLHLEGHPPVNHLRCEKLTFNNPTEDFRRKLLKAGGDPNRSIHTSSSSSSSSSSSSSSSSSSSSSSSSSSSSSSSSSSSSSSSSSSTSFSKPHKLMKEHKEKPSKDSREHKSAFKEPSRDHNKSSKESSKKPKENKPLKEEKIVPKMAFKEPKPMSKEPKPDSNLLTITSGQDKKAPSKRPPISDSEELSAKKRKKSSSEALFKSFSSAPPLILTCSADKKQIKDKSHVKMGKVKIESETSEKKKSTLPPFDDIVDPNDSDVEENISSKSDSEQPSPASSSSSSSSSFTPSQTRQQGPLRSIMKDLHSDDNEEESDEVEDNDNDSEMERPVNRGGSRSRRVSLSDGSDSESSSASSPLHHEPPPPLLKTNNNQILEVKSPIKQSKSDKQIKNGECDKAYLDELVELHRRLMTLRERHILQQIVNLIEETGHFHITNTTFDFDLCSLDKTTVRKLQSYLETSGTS
The depositor's hits bear a star; i = inactive; ? = inconclusive; · = no result given; & = joins results of further samples. This is a subset (hit frequency here may not be typical).

SMILES	RanGTP-Imp inh	FGF22 binding	Vif TR-FRET	E coli growth	HNF4A DNA FP	UCH37 DUB inh	AF4-AF9 inh
Nc1ccc(N2CCOCC2)c(S(=O)(=O)Nc2ccccc2Cl)c1	·	i	·	0.712	4.6	5.2	0.1
CC(C)NC(=O)/C(=N\O)c1ccccc1	1.5	·	0.9%	·	-0.7	·	·
COC(=O)CC1OCC=C2CN3CCC45C6=CC(=O)C(=O)C([N+](=O)[O-])=C6NC4C1C2CC35 (stereo not drawn)	·	i	·	·	0.3	·	5.0
CCN1CCCC1CNC(=O)CSc1cc(=O)n(CC)c2ccccc12 (stereo not drawn)	?	·	2.0%	0.737	-6.1	-3.4	·
O=[N+]([O-])c1ccc(N2CCN(S(=O)(=O)c3ccccc3[N+](=O)[O-])CC2)cc1N1CCc2ccccc2C1	2.6	i	-3.2%	·	1.4	·	2.3
Cc1ccc(C)c(NC(=O)CCN2CC(C)OC(C)C2)c1 (stereo not drawn)	-0.4	·	-3.7%	0.717	-1.0	-1.0	·
CN1CCN(C(=O)CCCN2C(=O)/C(=C/c3cccc(Br)c3)SC2=S)CC1	3.5	i	·	0.638	3.0	7.5	27.4*
COc1cc(CC(=O)OCC(=O)Nc2ccc(Cl)c(S(=O)(=O)N(C)C)c2)cc(OC)c1OC	5.6	i	24.0%	0.663	-3.8	-0.6	5.4
CC(=O)C1=CCC(c2ccc(Cl)cc2)N(S(=O)(=O)c2ccc(C)cc2)C1 (stereo not drawn)	·	i	·	·	-0.9&-0.3	·	1.1&-1.9
Nc1nonc1NC(=O)CSc1nc2ccccc2s1	2.8	·	5.3%	0.674	1.6	5.6	·
Nc1nc(NC(=O)c2cccs2)nn1-c1ccccc1	4.1	·	2.3%	0.677	1.3	4.3	·
Cc1ccc(NC(=O)CCNC(=O)c2ccc([N+](=O)[O-])cc2)cc1S(=O)(=O)N(C)C	-0.5	i	17.5%	0.672	1.7	-2.1	1.1
Cc1ccc(-c2ccc(/C=N/N3C(=O)C4C5C=CC(CC5)C4C3=O)o2)c([N+](=O)[O-])c1 (stereo not drawn)	-4.4	·	8.8%	·	5.2	·	·
N=C1SCC(=O)N1/N=C/c1ccccc1	-0.7	i	-1.9%	·	-5.3	·	-1.9
O=C1c2ccccc2CCC12OC2c1ccncc1 (stereo not drawn)	·	i	·	·	0.6	·	-1.0
Nc1[nH]c(C(=O)c2ccccc2)c(-c2ccc(Cl)cc2)c1C(=O)NCc1ccco1	·	i	·	·	6.2	·	-1.4
Cc1cc(C)c(C#N)c(SC(C(=O)NC(C)(C)C)c2ccccc2)n1 (stereo not drawn)	-3.9	i	-30.8%	0.716	3.3	2.2	·
Cc1ccc(CCNC(=O)c2ccc(CS(=O)(=O)c3ccccc3C)o2)cc1	-1.8	i	·	0.665	-1.9	0.1	0.3
O=C(c1ccccc1)N1CCC(=O)N1c1ccccc1	5.3	·	20.8%	0.671	1.4	-1.5	·
COc1ccc(-c2csc(Nc3ccc(S(=O)(=O)Nc4cc(C)on4)cc3)n2)cc1	-2.3	i	·	·	3.0	·	0.3
O=C(c1ccccc1)c1cnc(Nc2ccccc2Cl)s1	-1.4	·	-18.1%	0.673	0.7	-25.1	·
CC(C)c1ccc(NC(=O)Cc2c(C(=O)O)n(C)c3ccccc23)cc1	0.6	i	-1.3%	0.644	-1.8	9.4	-2.6
O=C(C1CC(=O)N(c2ccc(F)cc2)C1)N1CCN(c2ccc(F)cc2)CC1 (stereo not drawn)	1.1	i	·	0.659	1.4	2.8	-2.0
Cn1c(=O)n(C)c2cc3[nH]cnc3cc21	-2.8	i	-9.0%	0.693	-6.1	1.1	-2.7
COC(=O)c1ccc(/C=N/OCC(=O)Nc2cc(F)ccc2F)cc1	1.6	i	·	·	2.9	·	-1.7
COc1ccc(OCCC(=O)Nc2ccc(S(N)(=O)=O)cc2)cc1	-3.6	i	·	0.688	2.7	-0.1	-3.7
Cc1ccc(CNC(=O)C2CCC(=O)N(CCc3ccc(Cl)cc3)C2)cc1 (stereo not drawn)	3.4	i	-4.7%	0.657	-1.8	3.4	1.5
O=C(CSc1nnc(-c2ccccc2Br)o1)N1CCc2ccccc2C1	-0.4	·	-3.3%	0.713	2.8	2.9	·
COc1ccc(C2=CC(c3cccc(OC)c3)n3nnnc3N2)cc1 (stereo not drawn)	2.0	i	·	0.673	-2.6	-3.2	-3.4
O=C(NCc1ccc(F)cc1)C(=O)NCC1OCCN1C(=O)c1ccc(Cl)cc1 (stereo not drawn)	-4.9	i	·	0.755	4.7	-1.5	-2.5
COc1ccc(C(=O)/C(=C/O)N=Nc2ccc(F)cc2)cc1	-2.6	i	2.4%	·	4.8	6.9	4.3
CCC(=O)c1ccc(OCc2ccc(C(=O)OC)cc2)c(OC)c1	-0.8	·	-30.8%	0.785	-3.1	0.1	·
COc1ccc(CCC(=O)NNC(=O)c2ccccn2)cc1OC	·	i	-1.5%	0.625	5.5	1.8	0.5
Cc1ccc(C(=O)Nc2ccc(S(=O)(=O)N3CCCC3)cc2)cc1	1.3	i	·	0.654	1.1	1.8	-0.9
CCCN(CCC)S(=O)(=O)c1ccc(C(=O)NCc2ccc3c(c2)OCO3)cc1	1.0	i	22.7%	0.716	-4.3	1.7	-3.5
CCn1c(SCC(=O)c2cc(C)n(C)c2C)nnc1-c1ccccc1	3.9	·	7.3%	0.77	-2.3	3.1	·
COc1ccc(CNC(=O)COc2ccc(S(=O)(=O)N3CCOCC3)cc2)cc1	-3.8	i	-4.0%	0.695	0.9	1.4	-4.6
CC(NC(=O)[C@H](C)NC(=O)N1CCn2c1nc1ccccc12)c1ccccc1 (stereo partly drawn)	1.0	i	-9.9%	0.707	-0.8	0.7	1.2
CCN(CC)CCN1CNC(=S)NC1	·	i	-2.3%	·	3.7	·	-5.5
COc1ccc(OCC(=O)Nc2ccc(S(=O)(=O)N3CCCCCC3)cc2)cc1	-1.4	·	5.9%	0.78	2.2	3.3	·

4 compounds picked at random from the list so far:
SMILES	RanGTP-Imp inh	FGF22 binding	Vif TR-FRET	E coli growth	HNF4A DNA FP	UCH37 DUB inh	AF4-AF9 inh
COc1ccc(OCCC(=O)Nc2ccc(S(N)(=O)=O)cc2)cc1	-3.6	i	·	0.688	2.7	-0.1	-3.7
Cc1ccc(C(=O)Nc2ccc(S(=O)(=O)N3CCCC3)cc2)cc1	1.3	i	·	0.654	1.1	1.8	-0.9
COc1ccc(C2=CC(c3cccc(OC)c3)n3nnnc3N2)cc1 (stereo not drawn)	2.0	i	·	0.673	-2.6	-3.2	-3.4
Cn1c(=O)n(C)c2cc3[nH]cnc3cc21	-2.8	i	-9.0%	0.693	-6.1	1.1	-2.7

(more compounds)
SMILES	RanGTP-Imp inh	FGF22 binding	Vif TR-FRET	E coli growth	HNF4A DNA FP	UCH37 DUB inh	AF4-AF9 inh
COc1cccc(/C=N/NC(N)=S)c1OCc1ccccc1Cl	-2.5	i	70.2%	·	-1.9	·	6.3
COCCCNc1nc2ccccc2nc1NS(=O)(=O)c1ccc(C)c(C)c1	3.6	i	-3.9%	0.69	-0.5	-80.2	3.7
CC(=O)Nc1ccc(NC(=O)CN(C)S(=O)(=O)c2ccc3ccccc3c2)cc1	1.3	i	-6.5%	0.708	4.9	1.9	-1.9
COc1ccc(NC(=O)CSCc2cc(=O)n3ccsc3n2)cc1	3.4	i	·	0.713	-3.1	0.7	0.1
O=C(O)CCCCCNC(=O)c1ccncc1	?	·	1.8%	0.638	2.1	0.9	·
CCC1(C)Cc2c(C#N)c(SC)nc(N3CCOCC3)c2CO1 (stereo not drawn)	0.1	i	·	0.666	0.2	6.0	-3.2
Cc1nc(C)c(-c2csc(Nc3ncccc3C)n2)s1	4.5	i	·	0.717	4.4	2.2	2.8
O=C(NC(=S)NCC1CCCO1)c1ccccc1F (stereo not drawn)	-2.4	i	11.3%	0.669	-2.9	-1.0	-12.1
CN(CCOC(=O)C1c2ccccc2Oc2ccccc21)C(C)(C)C	2.7	·	1.8%	0.682	1.3	3.6	·
Nc1ccc(Oc2ccc3c(c2)C(=O)N(CC2CCCO2)C3=O)cc1 (stereo not drawn)	1.8	i	2.4%	0.71	-0.8	2.6	-4.5
C[n+]1ccc2[nH]c3ccccc3c2c1	·	i	·	·	1.3	·	-2.6
Cc1cccc(NC(=O)CCN2C(=O)C3C4C=CC(C4)C3C2=O)c1 (stereo not drawn)	-2.5	i	8.5%	0.684	1.1	2.1	5.7
CN1CCN(C(=O)c2cc(-c3cccc(Cl)c3)on2)CC1	1.5	·	-0.3%	0.604	-0.9	-0.8	·
COc1ccccc1-c1cnn2c(NC3CCCC3)cc(C)nc12	-7.1	i	-1.8%	·	2.5	·	-7.7
Clc1cccc(-c2nc(NCCN3CCOCC3)c3ccccc3n2)c1	2.9	i	?	0.581	-0.7	0.7	1.8
Cc1ccccc1C(=O)Nc1ccc(C(=O)O)cc1NC(=O)c1ccccc1C	-5.9	i	0.3%	0.68	0.4	1.8	-1.4
CN(C)/N=C/c1cc([N+](=O)[O-])ccc1O	-2.2	i	5.0%	·	1.8	·	3.8
COC(=O)C1(Cc2ccccc2)NC(c2ccc(F)cc2)C2C(=O)N(C)C(=O)C21 (stereo not drawn)	4.3	·	11.4%	0.697	-1.5	1.7	·
COc1ccc(CCNC(=S)NC(=O)c2cccc([N+](=O)[O-])c2)cc1OC	-1.4	i	5.9%	0.643	1.7	-0.2	0.5
CCN1CCN(Cc2ccc(NC(=O)Nc3ccccc3)cc2)CC1	-1.0	·	71.2%	0.72	-1.8	1.0	·
CC(=O)N1CCN(S(=O)(=O)c2cccc(C(=O)OCc3cccc(F)c3)c2)CC1	·	i	·	0.662	-0.2	3.9	0.5
Cc1ccc(CN2CC(C(=O)Nc3cc(C)ccn3)CC2=O)cc1 (stereo not drawn)	0.8	i	-10.4%	0.62	0.3	1.3	-4.3
COC(=O)COc1ccc(S(=O)(=O)N2CCN(c3ccc(F)cc3)CC2)cc1	4.3	i	6.9%	0.665	-3.4	5.3	-34.8
Cc1ccc(C(=O)OCC(=O)Nc2ccc(N(C)C)cc2)cc1NC(=O)c1ccco1	2.9	·	5.2%	0.779	1.9	2.1	·
O=C(Nc1c(F)c(F)c(F)c(F)c1F)C1CCCCC1	-3.7	·	2.0%	0.696	0.7	-1.8	·
O=C(CCCN1C(=O)/C(=C/c2cccc(Br)c2)SC1=S)Nc1ccccn1	1.4	·	1.2%	0.698	1.1	5.0	·
O=C(Nc1ccccc1)N(CCN1CCOCC1)Cc1cccc(Cl)c1	-1.8	i	17.6%	0.721	-3.5	1.9	-1.9
Cc1cc(=O)[nH]c(-n2[nH]c(C)cc2=O)n1	6.7	·	23.1%	0.705	-1.3	0.4	·
COCCNC(=S)N(C)C1(c2ccccc2Cl)CCCCC1=O (stereo not drawn)	-0.3	i	2.5%	0.654	1.1	-1.4	-0.8
Nc1ccc(C(=O)NCCCSc2ccccc2)cc1[N+](=O)[O-]	-2.6	i	·	0.712	0.0	1.2	-12.7
O=C(NNc1ncnc2c1cnn2-c1cccc(Cl)c1)c1ccco1	6.0	i	-1.1%	0.69	0.8	0.7	-8.4
COc1cc(Cl)c(C)cc1NC(=O)COC(=O)C1=NN(c2ccccc2)C(=O)CC1	·	i	·	0.641	-3.0	0.6	-0.6
C=C1CC[C@@]23CC[C@]4(C)[C@@](OC2=O)([C@@H]3C1)[C@H]1O[C@H]1C1[C@@]2(C)CC[C@H](O)C(C)(C)C2CC[C@]14C (stereo partly drawn)	·	·	·	0.677	2.8	1.9	·
CCOC(=O)CSc1nc2cc(C(=O)N3CCCC3)ccc2c(=O)n1Cc1ccccc1	0.0	·	7.5%	0.715	2.8	0.4	·
CCOc1ccc(CN(C)C(=O)CCl)cc1	-0.8	i	-1.1%	0.695	2.8	0.2	-1.9

Compound activity as filed in PubChem BioAssay.
